High-throughput results from PubChem.
LT uptake inh – blocks cellular internalization of anthrax lethal toxin; Cells, anthrax lethal toxin internalization, FRET ratio (460/530); Potency, µM (doses to about 40 µM), without a hit: at the top dose activity change, negative = inhibition, most hits filed as inhibitors; 70,000 tested, 0.67% active; AID 912; active = well fitted falling ratio curve with the 530 nm signal flat; inconclusive = other ratio curves, or a change in one channel alone; inactive = flat curves in the ratio and both channels; the % refers to the ratio; also: % is scaled to controls: 0 for no effect and ±100 for the full control effect; nearly all actives have a fitted effect of over 50% in size; tested in ME-180 cells; beta-lactamase reporter
SmPrx2 inh – Schistosoma mansoni Prx2 inhibition. 65,000 tested, 0.07% active. AID 448. Potency, µM. S. mansoni Prx2 activity coupled to TGR/GSH (TGR is thioredoxin glutathione reductase), NADPH fluorescence loss, qHTS; some inactives read as strong as hits; active means full or partial inhibition curve with a strong effect at the top dose; inconclusive means weaker partial or single-point curve; inactive means no accepted curve; also: series up to 57 µM; many of its hits are not listed in these tables
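Activity is read as the drop in NADPH fluorescence (365/450 nm), recorded every 30 sec for 8 min after H2O2 addition. Prx2 is coupled to TGR-driven NADPH oxidation through glutathione, in phosphate buffer pH 7.4.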
* = called active by the depositor; ? = inconclusive; / = not tested or not shown; [ ] = dose if it differs, or a comment. Potency is read from the fitted curve at half-maximal effect. This is a subset, so the mix of outcomes need not match the whole.

molecule | LT uptake inh | SmPrx2 inh
CC(=O)N1[C@H](C)C=C[C@]1(Cc1ccccc1)C(=O)NCc1ccc(C)o1 | 3.1% | /
O=C(NCCc1ccc(Cl)cc1)C1CCC(=O)N1C1CCCC1 (configuration not stated) | 0.3% | >57
O=C(CCNC(=O)Cn1ccc2ccccc2c1=O)NCCN1CCN(c2cccc(Cl)c2)CC1 | 4.8% | >57
CC(C)=C1CCC(C)CC1=O (configuration not stated) | -5.3% | /
CCn1c(SCC(=O)NCc2ccccc2)nnc1-c1ccccc1O | -7.7% | >57
O=C1c2ccccc2C(=O)N1CCCc1nc2ccccc2c(=O)n1Cc1ccco1 | -14.6% | /
C[N+]1=Cc2cc3c(cc2CC1)OCO3 | ? | >57
CC(C)(C)NC(=O)c1ccc(COc2ccccc2Br)o1 | -2.3% | >57
O=C(Cc1cn2ccsc2n1)Nc1ccccc1Oc1ccccc1 | -4.3% | >57
CN(Cc1cc(Br)cc(Br)c1O)Cc1c(O)ccc2ccccc12 | -3.1%[8 µM] | >57
CCc1ccccc1NC(=O)C(CC)Sc1nc2cc3c(cc2c(=O)n1Cc1ccco1)OCO3 (configuration not stated) | ? | >57
Cn1cnc2cc(NC(=O)c3ccc(Cl)cc3)ccc21 | ? | >57
CCC12CCCN3CCC4(C(=C(C(=O)OC)C1)Nc1ccccc14)C32 (configuration not stated) | -6.4% | >57
CCNC(=O)c1c(N)sc2c1CCCCC2 | -8.8% | >57
O=C(CCc1nc(-c2ccccc2F)no1)NCCN1CCN(Cc2ccccc2)CC1 | -27.4% | >57
CC(=O)[C@@H]1CC[C@H]2[C@H]3CC[C@H]4C[C@@H](O)CC[C@]4(C)[C@@H]3CC[C@]12C | -19.1% | >57
CCCCCCN(C(=O)CCCCCN1C(=O)NC(c2cccc([N+](=O)[O-])c2)C(C(=O)OCc2ccccc2)=C1C)C(C(=O)NCCCC)c1ccc(OCC(=O)OC)c(C(=O)OC)c1 (configuration not stated) | ? | /
O=C(Cn1ccccc1=O)c1cccs1 | -13.5% | >57
CC(=O)c1c[nH]c2ccc(C)cc2c1=O | ? | >57
CCC(C)(C)n1nnnc1C(C(C)C)N1CCC(C(N)=O)CC1 (configuration not stated) | -4.0% | >57
O=c1c(Cc2ccccc2)c(O)nc2n1CCS2 | 19.7% | >57
COC(=O)c1sc(=S)n(-c2cccc(Cl)c2)c1N | ? | >57
CC(C)[C@H](NC(=O)OC(C)(C)C)c1nnc(S(=O)(=O)Cc2c(F)cccc2Cl)o1 | / | >57
CCOC(=O)CCc1c(C)c2ccc(O)cc2oc1=O | 8.4% | /
C=C(C)C(=O)OCCCCCC | -5.2% | /
CCOC(=O)Cn1c(=O)c2c(nc3n2CCN3c2ccc(C)cc2)n(C)c1=O | 2.2% | >57
CC1=C(C(=O)OCCOC(C)C)C(c2cccnc2)C2=C(CCCC2=O)N1 (configuration not stated) | ? | /
Cc1ccc(C(=O)n2cnnc2N)cc1C | 6.4% | >57
Cc1cc(=O)oc(C)c1C(=O)NCC1COc2ccccc2O1 (configuration not stated) | 14.2% | >57
COc1cccc(Cn2nnc(C(=O)Nc3cc(Cl)ccc3OC)c2N)c1 | ? | >57

Arranged by molecular weight (lowest first): 6 of the compounds above
molecule | LT uptake inh | SmPrx2 inh
O=C(Cn1ccccc1=O)c1cccs1 | -13.5% | >57
O=c1c(Cc2ccccc2)c(O)nc2n1CCS2 | 19.7% | >57
CCOC(=O)CCc1c(C)c2ccc(O)cc2oc1=O | 8.4% | /
COC(=O)c1sc(=S)n(-c2cccc(Cl)c2)c1N | ? | >57
O=C(NCCc1ccc(Cl)cc1)C1CCC(=O)N1C1CCCC1 (configuration not stated) | 0.3% | >57
CCn1c(SCC(=O)NCc2ccccc2)nnc1-c1ccccc1O | -7.7% | >57

Going on with the list.
molecule | LT uptake inh | SmPrx2 inh
CCOC(=O)c1[nH]c(C)c(C(=O)NCCN2CCOCC2)c1C | -0.4% | >57
CC(C)(C)SCCNC(=O)CN(c1ccc(F)cc1)S(C)(=O)=O | -3.8% | >57
CC1CCN(C(=O)C2CCN(CCCc3ccccc3)CC2)CC1 | ? | >57
Cc1ccc(CNC(=O)CCc2nc3ccccc3c(=O)[nH]2)cc1 | -12.0% | >57
COc1ccc(N2CC(O)=C(c3nc(C)cs3)C2=N)cc1 | 1.9% | >57
COc1cc(S(=O)(=O)NCC2COCCO2)ccc1-n1cnnn1 (configuration not stated) | -12.6% | >57
CCOc1ccc(/C(O)=C2/C(=O)C(=O)N(CCOCCO)C2c2cccnc2)cc1 (configuration not stated) | ? | >57
O=C(Nc1ccccc1)N1CC2(CCN(C(=O)Oc3ccccc3)CC2)C1 | 0.2% | >57
O=C(NCCCN1CCOCC1)c1c(O)c2cc(Br)cc(Br)c2[nH]c1=O | -8.2% | >57
CCOC(=O)C1CCN(C(=O)Nc2ccc3nc(C)c(C)nc3c2)CC1 | 3.9% | >57
C=CCn1c(-c2cccs2)nc2nc3ccccc3nc21 | ? | /
Cc1nn2cc(-c3ccc(Cl)cc3)nc2s1 | -6.7% | >57
CC(=O)N(c1ccc(C(C)C)cc1)C1C=CS(=O)(=O)C1 (configuration not stated) | 14.9% | >57
Cc1ccc(CS(=O)(=O)CCC(=O)NCCN2CCCCC2C)cc1 (configuration not stated) | ? | >57
CCOC(=O)c1sc(-c2ccccc2)cc1N | -18.9% | >57
COCCN(CCOC)S(=O)(=O)c1ccc(OC)cc1 | / | >57
COc1ccc(-n2c(Cc3cccn3C)nnc2SCC(=O)Nc2ccc3c(c2)OCO3)cc1 | -6.4% | >57
CC(OC(=O)c1ccco1)C(=O)NCc1cccs1 (configuration not stated) | -2.0% | >57
N#Cc1c(N)c(C#N)c(-c2ccc(O)cc2)c2c1CCCC2 | -5.1% | >57
O=c1c2c3c(sc2n2cnnc2n1-c1ccccc1)N(Cc1ccccc1)CCC3 | -7.2% | >57
COC(=O)c1ccccc1NC(=O)Cn1nc(C(F)(F)F)c2c1CCC2 | -28.3% | >57
CN(C)c1ncc2nc(-c3ccc(F)cc3)c(=O)n(C)c2n1 | ? | >57
Cc1noc(C)c1CSc1nnc(-c2c[nH]c3ccccc23)n1-c1ccc(Cl)cc1 | 6.2% | >57
CC(OC(=O)c1cc2sccc2n1C)C(=O)NCc1ccco1 (configuration not stated) | -8.6% | >57
CCOC(=O)C1=C(C)Nc2nc(C)nn2C1c1ccc(C)cc1 (configuration not stated) | ? | >57
CCNc1ncc2nc(-c3ccc(OC)cc3)c(=O)n(C)c2n1 | ? | >57
Cc1cc(C)n2cc(CSc3ncccc3C(=O)O)nc2n1 | -4.8% | >57
COc1ccc(OC)c(NC(=O)Cn2c(CCC(=O)O)ccc2-c2cccs2)c1 | 12.2% | >57
CC(=O)Nc1nonc1-c1nc2ccccc2n1CC1CC1 | ? | >57
CCCn1c(=O)c2[nH]c(-c3ccc(OCC(=O)Nc4ccc(C(C)=O)cc4)cc3)nc2n(CCC)c1=O | ? | >57
COc1ccc(OC2C=CC(C#Cc3ccc(F)cc3F)OC2CO)cc1 (configuration not stated) | ? | /
COCc1nnc(NC(=O)CC(C)c2ccccc2)s1 (configuration not stated) | -17.1% | >57
O=C(NCc1ccco1)c1cccn2c(=O)c3sccc3nc12 | 25.4% | >57
CC(C)N(C(=O)C1CC(=O)OC12CCCCC2)C(C)C (configuration not stated) | -18.0% | >57
Cc1ccc(C)c(OCCCC(=O)O)c1 | -8.8% | >57
COc1ccc2cc(CCNC(=O)C(C)C)c(=O)[nH]c2c1 | -2.8% | >57
Cc1nn(C(=O)c2ccco2)c(C)c1CN1C(=O)c2ccccc2C1=O | ? | >57
Cc1ccc(C(=O)CCNc2ccc(F)c(Cl)c2)o1 | -8.0% | >57
CCCOc1ccc2oc(=O)c3c(c2c1)CCCN3C(=O)CN1CCN(C(=O)c2ccco2)CC1 | -14.3% | >57
COCCn1c(SCC(=O)Nc2cccc(OC)c2)nnc1-c1ccccc1 | 1.8% | >57
O=C(O)CSc1nnc(Cc2ccccc2)n1-c1ccccc1 | -3.1% | >57
COc1ccccc1N1CCN(C[C@@H]2CN3C(=O)N(C)c4ccccc4C3=N2)CC1 | -8.2% | >57
CCCCCCCCCCCCCCCC(=O)OC(CO)CO | 2.2% | /
COc1cccc(C(=O)Nc2ccc(NC(C)=O)cn2)c1 | -11.1% | >57
O=C(c1ccco1)N1CCN(c2ccc(Cl)c(Cl)c2)CC1 | 7.2% | >57
CCCOc1ccc(-c2nnn(CC(=O)c3ccc4c(c3)OCCO4)n2)cc1 | -11.2% | >57
CCOc1cc2[nH]c(=S)n(CCCN3CCN(C)CC3)c(=O)c2cc1OCC | / | >57
Cc1cc(OC(=O)c2ccco2)c2c3c(c(=O)oc2c1)CCC3 | ? | >57
NNC(=O)c1ccc[n+](CCc2ccccc2)c1 | -2.6%[8 µM] | >57
Nc1nncn1C(=O)c1c(Cl)cccc1Cl | -0.6% | /
O=C(Nc1cccc2ccccc12)N1CCN(Cc2ccccc2)CC1 | 14.3% | >57
CCn1nc(CC(=O)Nc2nnc(CC(=O)N3CCCCC3)s2)c2ccccc2c1=O | 7.4% | >57
C=CCSc1ncccc1C(=O)NCc1ccccc1 | -6.6% | >57
CC(C)(O)c1cc(=O)sc2nc3ccccc3n12 | 4.1% | >57
COc1ccc2c(CC(=O)OCC(=O)Nc3ccc4c(c3)OCO4)coc2c1 | -8.5% | >57
Cc1ccc(-n2c(SCC(=O)NCC3CCCO3)nc3n[nH]c(C)c3c2=N)cc1Cl (configuration not stated) | -10.9% | >57
COc1ccc2c(c1OC)C(=O)N(c1nccs1)C2 | 15.0% | >57
CC(=O)Nc1c(C(=O)C2CC2)oc2ccccc12 | 20.2% | >57
CNC(=O)C1CC(=O)N(Cc2ccc3c(c2)OCO3)C(=Nc2ccc(F)cc2)S1 (configuration not stated) | 5.8% | >57
Cc1cc(NC(=O)C2C3C(=O)N(CCC(C)C)C(C(=O)NCc4ccccc4)C34C=CC2(C)O4)no1 (configuration not stated) | -2.0% | >57

(list continues)
molecule | LT uptake inh | SmPrx2 inh
CCOC(=O)N1CCN(C(=O)CSCc2nc(-c3ccccc3F)oc2C)CC1 | -10.4% | >57
COc1cc(OC)c(OC)cc1CN1CCN(c2ccccc2OC)CC1 | / | >57
Nc1ccc([N+](=O)[O-])c(N)c1 | -7.6% | /
O=C1c2ccccc2N2C(=O)c3ccccc3C2N1O (configuration not stated) | -2.0% | >57
Cc1cccc(Cn2c(N(C)Cc3ccccc3)nc3c2c(=O)[nH]c(=O)n3C)c1 | 19.2% | >57
COc1ccc(Nc2ncc(C(=O)N3CCC4(CC3)OCCO4)c3ccccc23)cc1 | 5.1% | >57
CCC(C)(C)n1nnnc1C(c1cc2ccc(OC)cc2[nH]c1=O)N1CCc2ccccc21 (configuration not stated) | ? | >57
COc1ccccc1N1CCN(C(=O)C2CCN(S(=O)(=O)c3ccc(F)cc3)CC2)CC1 | -8.8% | >57
O=C(CN1C(=O)CSc2ccccc21)NC1CCCC1 | ? | >57
CC1(C)NC(=O)N(CC(O)CN2CCCC2)C1=O (configuration not stated) | 7.5% | >57
Cc1cc(CNC(=O)[C@H](C)[C@H]2C[C@]2(C)[C@H](NC(=O)OCc2ccccc2)c2ccccc2)nn1C | ? | >57
COC(=O)C1=C(C)N(Cc2ccccc2)[C@]23O[C@](C(=O)OC)(C(=O)N2C1c1ccccc1)C(C(=O)OC)=C3C(=O)OC (some centres not stated) | -10.0%[8 µM] | /
COc1ccc(-c2ccc(NCCC3=CCCCC3)nn2)cc1OC | -8.8% | >57
COC(=O)N1CCC[C@@]2(CCN(C(c3ccccc3)c3ccccc3)C2)C1 | 5.8% | >57
CCC(C)NC(=O)c1c(N)n(CC2CCCO2)c2nc3ccccc3nc12 (configuration not stated) | ? | >57
Cc1c(Cl)ccc2c1NC(=O)[C@]21N[C@@H](CCC(N)=O)[C@H]2C(=O)N(c3ccc(F)cc3)C(=O)[C@H]21 | -29.6% | >57
Cc1ccc(C(=O)N2CCN(C(=O)CN3CCOCC3)C2)cc1 | -7.1% | >57
CCOC(=O)c1snc(C(=O)NC2CCCCC2)c1N | -14.7% | >57
COC(=O)[C@@]1(Cc2ccc(F)cc2)[C@H]2c3cc(C(=O)N4CCCC4)n(Cc4cc(F)cc5c4OCOC5)c3C[C@H]2CN1C(=O)c1ccccc1 | ? | >57
CN(C)CCCN1C(=O)C(=O)/C(=C(/O)c2ccc3c(c2)OCO3)C1c1cccnc1 (configuration not stated) | -11.9% | >57
CC(=O)NC1CC2CCC(C1)N2 (configuration not stated) | 4.8% | >57
Cc1cc(SCc2ccccc2)nc(=O)[nH]1 | 1.1% | >57
CS(=O)(=O)Nc1ccc(C(=O)NCc2ccc3c(c2)OCO3)cc1 | -1.1% | >57
CSc1nc(-c2ccccc2)nc(SC)c1C(C)=O | ? | >57
COc1ccc(N(C(=O)c2ccc(S(=O)(=O)N3CCOCC3)cc2)C2C=CS(=O)(=O)C2)cc1 (configuration not stated) | -5.8% | >57
CCCN1CCN(CCCNC(=O)Cn2nc(-c3ccc(C)cc3)ccc2=O)CC1 | 1.3% | >57
